Screening results: PubChem, National Center for Advancing Translational Sciences (NCATS)
GLA inh pH 4.5 = blocks human alpha-galactosidase A at pH 4.5 | P06280 | purified enzyme, 4-MU-alpha-Gal fluorescence, pH 4.5 | activity change, negative = inhibition, % at 105 µM | 230,000 tested, under 10 active; inconclusive = small, poorly fitted or top-dose-only inhibition, or a rising curve; inactive = flat fitted curve, though single readings scatter; no compound was filed as active;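 note: 0% = full activity with enzyme and -100% = basal without enzyme; dose as in the result columns while the protocol names 77 µM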
Target sequence (P06280 whole entry, looked up): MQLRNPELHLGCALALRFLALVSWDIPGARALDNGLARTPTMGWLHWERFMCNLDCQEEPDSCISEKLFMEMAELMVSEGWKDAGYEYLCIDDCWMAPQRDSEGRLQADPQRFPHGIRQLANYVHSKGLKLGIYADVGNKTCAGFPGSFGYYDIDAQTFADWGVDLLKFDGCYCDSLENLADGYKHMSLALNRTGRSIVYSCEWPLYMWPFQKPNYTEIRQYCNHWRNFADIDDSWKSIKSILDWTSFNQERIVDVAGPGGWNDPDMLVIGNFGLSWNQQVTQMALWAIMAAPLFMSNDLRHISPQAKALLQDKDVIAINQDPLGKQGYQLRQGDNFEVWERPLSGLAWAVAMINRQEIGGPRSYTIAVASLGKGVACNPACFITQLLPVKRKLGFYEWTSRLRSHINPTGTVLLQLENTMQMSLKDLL
Rango-impB inh = prevents formation of the Rango-importin beta complex; Q14974; Rango CFP/YFP FRET sensor + importin beta, 45 min; Potency, µM (series often up to 92.2 µM), for the others: at the highest dose inhibition of complex formation; actives 0.031% (n = 340,000); AID 540263; active = rising FRET ratio curve, often small or poorly fitted; inconclusive = mostly compound fluorescence or quenching in the first reads; inactive = flat curves in all reads;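 note: potency is the fitted concentration of half-maximal effect; 0% = DMSO wells and 100% = buffer wells lacking importin beta; nearly all actives have a fitted effect of over 15% in size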
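FRET biosensor (snurportin 1 IBB flanked by EYFP and cerulean), 50 nM, with compound 5 min, then 0.125 microM importin beta in PBS, 1 mM DTT, 0.02% Tween-20, 0.1% BSA. CFP/YFP ratio read after 45 min at room temperature; pre-read flags interference.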
miR-21 FLuc = miR-21 reporter, rising signal; HeLa miR-21 FLuc reporter, luciferase, 48 h; Potency, µM (highest dose often 38.3 µM), for the others: at the highest dose reporter change, positive = more light; 340,000 tested, under 10 active; active = well fitted rising curve with a large enough effect; inconclusive = small, poorly fitted or top-dose-only effect; inactive = no such curve, though single readings can be large or run the other way;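 note: % of control where 0% means no effect; miR-21 action dims this reporter so a rising signal means less miR-21 action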
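Using DMEM plus 10% FBS, HeLa miR-21-FLuc cells are incubated with test compounds (final up to about 40uM) for 48 hours; firefly luciferase signal is then imaged following reagent-mediated lysis.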
Rango release inh = inhibitors of RanGTP-induced Rango-importin beta complex dissociation | Potency, µM (highest dose often 46.1 µM), inactives show at the highest dose activity change, negative = inhibition | Biochemical FRET Rango-importin beta, RanGTP-induced dissociation | AID 540253 | O95149+P62826 | actives 0.071% (n = 340,000); active means falling FRET ratio curve, often poorly fitted, with flat reads before Ran was added; inconclusive means other falling curves, or compound fluorescence or quenching; inactive means flat or rising ratio curve;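 note: potency is the fitted concentration of half-maximal effect; % of control where 0% means no effect; nearly all actives have a fitted effect of over 45% in size; -100% = wells without RanGTP and RCC1; the record marks most hits as doubtful in a second field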
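Quantitative HTS using a FRET biosensor: 0.1 uM Rango, 0.25 uM importin beta, 0.6 uM Ran, 2 mM GTP, 0.2 uM RCC1 final, PBS with DTT, Tween-20 and BSA. Post-read taken 45 min after Ran addition.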
* = called active by the depositor; & = joins results of further samples. Only part of the results is shown. The share of hits here may be higher or lower than overall.

For COc1ccc(C(=O)Nc2nc(N3C(=O)c4ccccc4C3=O)n(-c3ccccc3)n2)cc1 the results were GLA inh pH 4.5 -3, Rango-impB inh -1.2%, miR-21 FLuc -4% and Rango release inh -3%.
Screening Cn1c(=NC(=O)CSCC(=O)N2CCCCC2)sc2ccccc21 returned GLA inh pH 4.5 11, Rango-impB inh -0.1%, miR-21 FLuc -21% and Rango release inh 0%.
CCOC(=O)N1CCc2c(sc(NC(=O)CN(CC)CC)c2C#N)C1 was read as GLA inh pH 4.5 5, Rango-impB inh -1.0%, miR-21 FLuc 1% and Rango release inh -7%.
For COc1ccccc1C(=O)Nc1c(-c2ccccc2)nc2ccccn12 the results were Rango-impB inh -4.2%, miR-21 FLuc -13% and Rango release inh 18%.
Screening Cc1nc2c(sc3nc4c(cc32)COC(C)(C)C4)c(=O)n1CC(=O)NCc1ccco1 returned GLA inh pH 4.5 0, Rango-impB inh 1.5%, miR-21 FLuc -10% and Rango release inh -24%.
For COc1ccc(C(=O)N2CCN(C3CCCCC3)CC2)c(OC)c1 the results were GLA inh pH 4.5 5, Rango-impB inh -0.1%, miR-21 FLuc -5% and Rango release inh 0%.
`CCC(C)[C@H](NC(=O)NC(C)C)C(=O)O` (stereo partly drawn) gave GLA inh pH 4.5 -14, Rango-impB inh -2.4%, miR-21 FLuc -3% and Rango release inh -5%.
`CCCC(CCC)c1nc2ccncc2[nH]1` gave GLA inh pH 4.5 -1, Rango-impB inh -1.1%, miR-21 FLuc -1% and Rango release inh -13%.
COc1ccc(/C=C/C(=O)OCC(=O)NCCNC(=O)COC(=O)/C=C/c2ccc(OC)cc2)cc1 was read as Rango-impB inh -0.5%, miR-21 FLuc 1% and Rango release inh 11%.
For Cc1ccc(S(=O)(=O)N2CCCOC2CNC(=O)C(=O)NC2CCCCC2)cc1 (stereo not drawn) the results were GLA inh pH 4.5 7, Rango-impB inh -1.8%, miR-21 FLuc -1% and Rango release inh 12%.
`COc1cc(N)c(Cl)cc1C(=O)OCC(=O)Nc1ccc(N2CCOCC2)cc1` gave Rango-impB inh 1.7% and Rango release inh 4%.
`O=C(CSc1nc(C(F)(F)F)cc(=O)[nH]1)Nc1cccc2ccccc12` gave Rango-impB inh -2.9% and Rango release inh -6%.
COc1cc(O)c(C(CCN2CCOCC2)c2ccc(N(C)C)cc2)c(OC)c1 (stereo not drawn) was read as GLA inh pH 4.5 0, Rango-impB inh 1.0%, miR-21 FLuc -5% and Rango release inh -17%.
Cn1nnnc1NCc1cccc(Cl)c1 was read as GLA inh pH 4.5 6, Rango-impB inh -4.1%, miR-21 FLuc 1% and Rango release inh 8%.
For CC(=O)c1cc(C#N)c(SCc2ccccc2C#N)nc1C the results were GLA inh pH 4.5 -3, Rango-impB inh 7.2%, miR-21 FLuc 5% and Rango release inh -3%.
Screening Cc1ccc(S(=O)(=O)C2CS(=O)(=O)CC2O)cc1 (stereo not drawn) returned GLA inh pH 4.5 8, Rango-impB inh 4.0%, miR-21 FLuc 0% and Rango release inh -13%.
`Cc1ccc2nc(NC(=O)C3CCN(S(=O)(=O)c4cccs4)CC3)sc2c1` gave GLA inh pH 4.5 -12, Rango-impB inh 1.6%, miR-21 FLuc 25% and Rango release inh -13%.
CCC(CC)c1nc(C(N)=O)c2[nH]c(=O)n(-c3ccc(OC)c(OC)c3)c2n1 was read as Rango-impB inh -3.7%, miR-21 FLuc -23% and Rango release inh -13%.
CCCc1cc(=O)[nH]c(SCC(=O)Nc2c(C)n(C)n(-c3ccccc3)c2=O)n1 was read as Rango-impB inh 0.0% and Rango release inh -6%.
Cc1ccc(-n2nc(C)c3c(C)c(CCC(=O)O)c(C)nc32)cc1C was read as Rango-impB inh 3.1%, miR-21 FLuc -9% and Rango release inh -11%.
Fc1cccc(COc2ccccc2CNc2ccccc2)c1 was read as GLA inh pH 4.5 -1, Rango-impB inh 1.7%, miR-21 FLuc -11% and Rango release inh 2%.
COc1ccc(/C=N/NC(=O)c2[nH]ncc2Br)c(OC)c1 was read as GLA inh pH 4.5 2, Rango-impB inh -0.7%, miR-21 FLuc -41% and Rango release inh 15%.
Cc1ccccc1-c1nc(CS(=O)CC(=O)NCc2ccccc2)c(C)o1 (stereo not drawn) was read as GLA inh pH 4.5 5, Rango-impB inh -1.1%, miR-21 FLuc -1% and Rango release inh 3%.
Screening Cc1nnc(N2C(=O)C(=O)/C(=C(/O)c3ccc4c(c3)CC(C)O4)C2c2ccccc2F)s1 (stereo not drawn) returned Rango-impB inh inconclusive, miR-21 FLuc -15% and Rango release inh inconclusive.
O=c1[nH]cnc2cc(-c3ccc(Br)cc3)sc12 was read as Rango-impB inh -0.5%, miR-21 FLuc -53% and Rango release inh -9%.
For O=C1NC2(CCCCCC2)Cc2ccccc21 the results were GLA inh pH 4.5 3, Rango-impB inh -4.0%, miR-21 FLuc -1% and Rango release inh -9%.
`CCn1ncc(Cl)c1C(=O)NC(=S)Nc1ccccc1Br` gave Rango-impB inh 0.8%, miR-21 FLuc -24% and Rango release inh 0%.
Screening O=C(CCCn1nnnc1CN1CCOCC1)N1CCN(c2ccccc2F)CC1 returned Rango-impB inh -1.1%, miR-21 FLuc 1% and Rango release inh -10%.
Cc1ccc(NC(=O)CN(C)S(=O)(=O)c2cccc3cccnc23)cc1C was read as Rango-impB inh -6.4%, miR-21 FLuc 0% and Rango release inh 0%.
For Cn1nc(C(=O)NC2CCCCCC2)ccc1=O the results were GLA inh pH 4.5 3, Rango-impB inh 1.6%, miR-21 FLuc -9% and Rango release inh 9%.

Compounds above with a cyano group, in the order listed:
CCOC(=O)N1CCc2c(sc(NC(=O)CN(CC)CC)c2C#N)C1 was read as GLA inh pH 4.5 5, Rango-impB inh -1.0%, miR-21 FLuc 1% and Rango release inh -7%.
For CC(=O)c1cc(C#N)c(SCc2ccccc2C#N)nc1C the results were GLA inh pH 4.5 -3, Rango-impB inh 7.2%, miR-21 FLuc 5% and Rango release inh -3%.

Grouped by structure: the entries above containing an aryl thioether with sulfur outside any ring.
`O=C(CSc1nc(C(F)(F)F)cc(=O)[nH]1)Nc1cccc2ccccc12` gave Rango-impB inh -2.9% and Rango release inh -6%.
For CC(=O)c1cc(C#N)c(SCc2ccccc2C#N)nc1C the results were GLA inh pH 4.5 -3, Rango-impB inh 7.2%, miR-21 FLuc 5% and Rango release inh -3%.
CCCc1cc(=O)[nH]c(SCC(=O)Nc2c(C)n(C)n(-c3ccccc3)c2=O)n1 was read as Rango-impB inh 0.0% and Rango release inh -6%.

Additional entries.
`CC[C@]12c3[nH]c4ccc(Cl)cc4c3CCN1C(=O)[C@@H](CC(=O)NCc1ccco1)C[C@@H]2C(=O)N1CCN(C(=O)c2ccco2)CC1` gave Rango-impB inh -4.1% and Rango release inh 1%.
Cc1ccc(NC(=O)CC2S/C(=N/N=C/c3ccco3)NC2=O)cc1Cl (stereo not drawn) was read as GLA inh pH 4.5 -6, Rango-impB inh 0.4%, miR-21 FLuc 1% and Rango release inh 1%.
`CCOc1ccc(N(C(C)C(=O)NC(C)CC)S(C)(=O)=O)cc1` (stereo not drawn) gave GLA inh pH 4.5 1, Rango-impB inh 1.8%, miR-21 FLuc 1% and Rango release inh -2%.
O=C(O)c1ccc(NCc2cccc(Br)c2)cc1 was read as GLA inh pH 4.5 2, Rango-impB inh inconclusive, miR-21 FLuc -24% and Rango release inh 7%.
Cc1cc(Br)c(NC(=O)COn2nnc3ccc(S(C)(=O)=O)cc32)c(Br)c1 was read as GLA inh pH 4.5 -4, Rango-impB inh 0.0%, miR-21 FLuc 0% and Rango release inh 43%.
Cc1cc(Br)c(NC(=O)CCl)c(Br)c1 was read as GLA inh pH 4.5 7, Rango-impB inh -0.1%, miR-21 FLuc 0% and Rango release inh 3%.
`CCCn1cc(NC(=O)C2CC(c3cccc(Br)c3)=NO2)cn1` (stereo not drawn) gave GLA inh pH 4.5 -10, Rango-impB inh 0.8%, miR-21 FLuc -4% and Rango release inh 0%.
Screening CCCC(=O)NC1=C(C#N)C2(CCCC2)Cc2ccccc21 returned GLA inh pH 4.5 -3, Rango-impB inh -4.2%, miR-21 FLuc 0% and Rango release inh 14%.
For O=C(Nc1cccc(F)c1)C1CCN(C(=O)c2ccc(Cl)cc2)CC1 the results were GLA inh pH 4.5 3, Rango-impB inh -4.4%, miR-21 FLuc -3% and Rango release inh -15%.
`CCOC(=O)c1sc(N=NC2=C(O)CCCC2=O)c(C(=O)OCC)c1C` gave GLA inh pH 4.5 5, Rango-impB inh inconclusive, miR-21 FLuc -19% and Rango release inh -6%.
`S=C1NC2(CCCC2)N=C1c1ccccc1` gave GLA inh pH 4.5 5, Rango-impB inh 2.8%, miR-21 FLuc -16% and Rango release inh -11%.
Screening Nc1c(-c2cccs2)cnn1-c1nc(-c2ccc(Cl)cc2Cl)cs1 returned GLA inh pH 4.5 -2, Rango-impB inh -2.8%, miR-21 FLuc -3% and Rango release inh -21%.
`O=C(CSc1nnnn1Cc1ccccc1)Nc1ccc2c(c1)OCO2` gave GLA inh pH 4.5 2, Rango-impB inh -0.5%, miR-21 FLuc -10% and Rango release inh 2%.
Screening O=C(O)C1CCN(Cc2oc(CO)cc(=O)c2O)C1 (stereo not drawn) returned Rango-impB inh 0.3% and Rango release inh 1%.
`CCOC(=O)c1c(C)nc2ccc(C)cn12` gave GLA inh pH 4.5 2, Rango-impB inh 0.1%, miR-21 FLuc -1% and Rango release inh -2%.
Screening CCOn1c(=O)c(-c2ccc(C)cc2)[n+]([O-])c2ccccc21 returned Rango-impB inh 5.0%, miR-21 FLuc -1% and Rango release inh 12%.
O=c1c(Cc2ccc(F)cc2)c(O)ccn1C1CC1 was read as GLA inh pH 4.5 6, Rango-impB inh 0.3%, miR-21 FLuc 3% and Rango release inh -3%.
For CCC(CO)Oc1cc(NCc2ccc(Cl)cc2)c2ncn(C(C)C)c2c1 (stereo not drawn) the results were Rango-impB inh inconclusive and Rango release inh inconclusive.
Screening CCCCCn1c(N2CCC(Cc3ccccc3)CC2)nc2c1c(=O)[nH]c(=O)n2C returned Rango-impB inh -0.9% and Rango release inh -2%.
Screening Cc1ccc(SCC(=O)NCCN2C(=O)CSC2=O)cc1C returned GLA inh pH 4.5 0, Rango-impB inh 5.3%, miR-21 FLuc -36% and Rango release inh 22%.
For CCN(CC)C(C(=O)Nc1ccc2c(c1)OCO2)c1ccccc1 (stereo not drawn) the results were GLA inh pH 4.5 1, Rango-impB inh -2.0%, miR-21 FLuc -8% and Rango release inh 0%.
`COC(=O)CCCC1=CC2=CC(=O)C(C)(OC(=O)C3CCCC3)C(=O)C2=CO1` (stereo not drawn) gave GLA inh pH 4.5 -6&0, Rango-impB inh inconclusive, miR-21 FLuc 8% and Rango release inh -11%.
For CC(=O)Nc1cc2c(cc1NC(=O)Cn1nc(-c3ccc4c(c3)OCCO4)ccc1=O)OCCO2 the results were GLA inh pH 4.5 -1, Rango-impB inh 2.6%, miR-21 FLuc -9% and Rango release inh 13%.
For CCOc1ccc(C(=O)N[C@H](C(=O)Nc2ccc(S(=O)(=O)Nc3nccs3)cc2)C(C)C)cc1 the results were Rango-impB inh -6.2% and Rango release inh -23%.
CCOC(=O)C1(Cc2cccc(OC)c2)CCN(C/C=C/c2ccc(OC)cc2)CC1 was read as GLA inh pH 4.5 -4, Rango-impB inh 1.3%, miR-21 FLuc 7% and Rango release inh -2%.
Screening CN(C)CCN(C(=O)c1ccc(S(=O)(=O)N2CCCC2)cc1)c1nc2ccc(Br)cc2s1 returned Rango-impB inh -2.5%, miR-21 FLuc -31% and Rango release inh 1%.
Cc1oc(-c2ccc(Cl)cc2)cc1-c1nn2c(-c3ccoc3C)nnc2s1 was read as GLA inh pH 4.5 -22, Rango-impB inh -2.6%, miR-21 FLuc -1% and Rango release inh 12%.
For CC(=O)N1CC=CC1(C)C(=O)NCc1cc(F)cc(C(F)(F)F)c1 (stereo not drawn) the results were GLA inh pH 4.5 -7&-16, Rango-impB inh -1.8%, miR-21 FLuc 0% and Rango release inh 0%.
